# Bioassay records from PubChem.
# UCH37 DUB inh = human UCH37 deubiquitinating enzyme inhibition; actives 0.33% (n = 330,000); purified proteasome/UCH37, Ub-AMC cleavage fluorescence; AID 588478; Q9Y5K5; inhibition, % (test concentration not listed);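 active means mean of two replicates above 20%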;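 further: 0% = compound-free wells with enzyme and 100% = wells lacking proteasome; stock transfer was 100 nL into about 20 µL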
#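 Signal – fluorescence, ex 355 nm, em 460 nm · System – Proteasome-bound UCH37 · Input – 0.15 nM proteasome as dispensed · Timing – 30 min preincubation with enzyme, 25 min cleavage at room temperature · Read-out basis – percent inhibition of cleavage signal versus uninhibited and no-proteasome wells · Medium – Tris-HCl pH 7.4 with ATP-MgCl2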
# rRNA inh HTS = inhibits bacterial ribosomal RNA function over humanized ribosomes; GFP signal change (wild-type ribosome), % (concentration not given with the values); E. coli WT GFP vs humanized-ribosome RFP mutants, fluorescence, 24 h; stronger effect = lower value; DMSO median 0, no signal -100; actives 1.6% (n = 350,000); AID 720706;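 active means significant combined selectivity score with lowered wild-type GFP, culture density cut under 30%, mutant RFP and density less affected; inactive means any of these conditions unmet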; further: one replicate is shown; some compounds called inactive have numbers as strong as hits
# ALR H2O2 inh = blocks human ALR sulfhydryl oxidase activity | P55789 | actives 3.8% (n = 290,000) | inhibition, % (test concentration not listed) | purified ALR, DTT oxidation, H2O2 HRP-luminol luminescence;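 active means mean and each replicate at 75% or more; inconclusive means only one of the two met; inactive means neither met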;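 further: stock transfer was 7.5 nL into about 7.5 µL; 0% = neutral wells and 100% = wells with inactivated enzyme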
# Target sequence (P55789 whole entry, looked up): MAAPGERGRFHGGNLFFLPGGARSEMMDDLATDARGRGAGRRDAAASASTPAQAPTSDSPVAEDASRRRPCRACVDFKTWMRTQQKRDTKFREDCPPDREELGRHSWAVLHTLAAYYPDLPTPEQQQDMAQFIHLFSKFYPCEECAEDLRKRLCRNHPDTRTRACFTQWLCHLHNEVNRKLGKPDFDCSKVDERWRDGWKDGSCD
# HNF4A DNA FP = change in binding of human HNF4 alpha to DNA; activity change, % at 10 µM; actives 0.3% (n = 360,000); P41235; HNF4a-FITC DNA binding, fluorescence polarization, 1 h; AID 1224865; in the data active means activity change above about 30%, passing the limit was not always enough;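 further: controls were the assay level and a saturating level of protein; the project sought stronger binding though the title names inhibitors; some compounds called inactive have numbers as strong as hits; positive values seem to mean higher polarization but the record does not say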
# Target sequence (P41235 whole entry, looked up): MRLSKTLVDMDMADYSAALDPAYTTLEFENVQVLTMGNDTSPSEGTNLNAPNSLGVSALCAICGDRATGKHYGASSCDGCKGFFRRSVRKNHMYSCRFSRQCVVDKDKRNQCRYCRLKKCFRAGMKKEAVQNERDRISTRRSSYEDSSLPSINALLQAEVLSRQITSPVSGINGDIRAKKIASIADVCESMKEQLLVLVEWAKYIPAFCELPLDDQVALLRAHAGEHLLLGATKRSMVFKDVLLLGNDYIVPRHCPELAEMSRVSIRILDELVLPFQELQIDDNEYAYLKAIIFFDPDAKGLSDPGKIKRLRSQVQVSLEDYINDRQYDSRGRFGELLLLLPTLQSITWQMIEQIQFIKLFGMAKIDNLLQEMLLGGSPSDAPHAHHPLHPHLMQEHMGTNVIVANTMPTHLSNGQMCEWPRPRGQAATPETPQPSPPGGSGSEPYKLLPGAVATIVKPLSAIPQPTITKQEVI
# B2AR ag = agonists of human beta-2 adrenergic receptor inducing internalization; response, % (test concentration not listed); AID 504454; Am2.2-beta2AR cells, FAP receptor internalization, flow cytometry; reference of the scale not given here; actives 0.43% (n = 340,000); P07550;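 active means response above a set limit, near 3 SD of response in nonfluorescent compounds, cut at about 42% in these data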;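 further: stock transfer was 100 nL into about 11 µL; a reference agonist was the positive control; negative values mostly stem from fluorescent compounds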
# FGF22 binding = shifts melting point of recombinant human FGF22. Q9HCT0. recombinant FGF22 thermal shift, SYPRO orange fluorescence; percent of sucrose octasulfate shift, DMSO zero. calls only at 9.99 µM. actives 1.5% (n = 340,000);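 active means melting point raised past a set limit in the mean and every replicate; inconclusive means no clear call; three in four hits are not shown here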
# Target sequence (Q9HCT0 whole entry, looked up): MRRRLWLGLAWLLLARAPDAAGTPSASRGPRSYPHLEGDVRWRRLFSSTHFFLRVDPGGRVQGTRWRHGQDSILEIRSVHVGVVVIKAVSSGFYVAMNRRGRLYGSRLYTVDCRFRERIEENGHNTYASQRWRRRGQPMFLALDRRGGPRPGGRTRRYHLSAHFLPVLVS
# Ecoli growth = inhibitors of Escherichia coli growth; OD600, 23 h; stronger effect = lower value; actives 0.21% (n = 330,000); OD600 absorbance (test concentration not listed);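 active means OD600 absorbance below the run mean of sample wells minus 3.6 SD, in any replicate, cut at about 0.56 in these data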;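 further: stock transfer was 300 nL into about 60 µL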
# rRNA inh HTS OD600 = second read-out of rRNA inh HTS, no call of its own (marks repeat the call); OD600 change, %; measured here: OD600 growth;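 optical density of the mix in the first replicate; 0 = DMSO median and -100 = no signal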
# rRNA inh HTS RFP = further read-out of rRNA inh HTS, marked with its call; RFP signal change, %; measured here: RFP humanized mutant strains;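 first replicate; 0 = DMSO median and -100 = no signal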
# An asterisk follows results filed as active; i = inactive; ? = inconclusive; / = no result given. The list is partial; count on the stated rates, not on these rows.
SMILES,UCH37 DUB inh,rRNA inh HTS,rRNA inh HTS OD600,rRNA inh HTS RFP,ALR H2O2 inh,HNF4A DNA FP,B2AR ag,FGF22 binding,Ecoli growth
CCOC(=O)C1(C)CCCN1C(=O)c1ccc(OC)c(F)c1 (stereo not drawn),/,3,7,-1.1,/,2.6,/,i,/
COc1cc(-c2c(C(=O)c3ccccc3)[nH]c(N)c2C(N)=O)ccc1F,/,-16,-2,7.9,/,3.1,/,i,/
Cc1cc(C)n(-c2ccc(C(=O)Nc3ccc(S(=O)(=O)NCc4ccco4)cc3)cc2)n1,1.8,/,/,/,-6,-0.2,13,/,0.71
O=S(=O)(NCc1csc(-c2cccs2)n1)c1ccc(Cl)cc1,-2.5,-36,-63,-7.8,-7,0.5,-3,i,0.65
Nc1nc(NCc2ccccc2)nc(Nc2cccc(F)c2)c1[N+](=O)[O-],5.0,/,/,/,2,-3.8,-1,/,0.75
COCCNC(=O)c1cccc(OC2CCN(Cc3cccc(SC)c3)CC2)c1,1.6,2,6,-4.1,1,1.7,1,i,0.66
Cc1cnc(NC(=O)C2(c3ccccc3)CC2)s1,0.2,2,4,-0.3,-4,4.4,1,i,0.67
Cc1c(C(=O)NCCCN2CCCC2=O)oc2ccc(S(=O)(=O)N3CCOCC3)cc12,0.5,/,/,/,-33,1.5,3,/,0.72
C=CCOc1ccc(/C=C/C(=O)OCC(=O)N(C)CC(=O)Nc2ccc(F)cc2)cc1,-0.3,0,-2,-0.5,4,-1.0,-21,i,0.68
Cc1ccc(CNc2ncccc2-c2nc3cc(Cl)ccc3o2)cc1,-427,/,/,/,-13,0.8,2,/,0.71
O=C1NN=C(c2ccc(Br)cc2)CC1c1ccc(Cl)cc1 (stereo not drawn),4.4,-28,-27,-3.8,-4,-2.8,-3,i,0.68
O=C(COC(=O)/C=C/c1ccccc1)NC1CC1,0.9,21,12,1.2,/,-1.9,-2,i,0.62
COc1ccc(C(=O)NCCCN2CCOCC2)cc1,1.6,12,13,1.1,-4,-0.2,3,i,0.68
Cc1ccc(CNc2nc(N)c([N+](=O)[O-])c(NCCO)n2)cc1,15,8,4,7.5,/,7.7,-1,i,0.63
CC(C)Cc1nnc(NC(=O)CSc2nc(=O)cc(N)n2-c2ccccc2)s1,1.3,/,/,/,-9,0.3,8,/,0.77
O=C(NC1CCCC1)C(c1cccs1)N(C(=O)c1ccco1)c1ccc2c(c1)OCO2 (stereo not drawn),6.6,/,/,/,-17,-0.3,-7,/,0.7
Cc1nc2sc(C(c3ccco3)N3CCC(C)CC3)c(O)n2n1 (stereo not drawn),2.8,-5,9,4.4,5,-3.0,0,i,0.82
CCCn1c(SCCC(=O)O)nc2ccccc21,1.0,3,5,0.2,-4,6.4,-1,i,0.7
CCn1cc(S(=O)(=O)CC(=O)N2CCc3ccccc32)c2ccccc21,1.8,4,11,0.7,2,2.5,-266,i,0.74
COc1cc(C(O)c2nc(-c3ccccc3OC)cs2)ccc1F (stereo not drawn),/,0,-37,5.5,/,2.3,/,i,/
NNC(=O)c1ccc(COc2ccccc2)cc1,-1.8,5,3,-2.3,33,-1.6,-1,i,0.66
Cc1ccc([C@@H]2C[C@H]3[C@@H](CN2S(=O)(=O)c2ccc(Cl)cc2)C(=O)C[C@@H](c2ccccc2F)N3S(=O)(=O)c2ccc(C)cc2)cc1,/,33,21,0.7,/,0.8,/,i,/
N#CCN1CCN(CCC(=O)Nc2ccc(OCc3ccccc3)cc2)CC1,-0.2,/,/,/,-4,0.8,-1,/,0.67
CCCCNC(=O)CCn1ccc2cc(S(=O)(=O)N3CCCC3)ccc21,1.9,5,7,-1.6,-6,1.2,-36,i,0.71
COc1ccc(Nc2ncnc3c2cnn3Cc2ccccc2)cc1OC,2.8,/,/,/,-2,2.2,6,/,0.72
COc1ccc(OCC(=O)Nc2ccc(C)cc2)cc1,-1.3,3,3,-6.2,-14,0.6,-2,/,0.65
Cc1ccc(C)c(OCC(=O)NCC(C)C)c1C,2.2,-3,-5,-5.8,-22,0.0,7,i,0.71
Cc1nn(-c2ccccc2)c(C)c1NC(=O)c1cccs1,0.9,/,/,/,-1,1.4,4,/,0.7
CCc1ccc(N2C(=O)Nc3ccc(Br)cc3C2(O)C(=O)NCCN(C)C)cc1 (stereo not drawn),2.2,8,13,1.3,3,-2.9,19,i,0.61
CCCN1C2CCCC1CC(NC(=S)Nc1cc(C)ccc1C)C2 (stereo not drawn),0.9,/,/,/,/,-0.1,-8,/,0.69

# Two of the compounds above, with values ahead of the structure:
UCH37 DUB inh	rRNA inh HTS	rRNA inh HTS OD600	rRNA inh HTS RFP	ALR H2O2 inh	HNF4A DNA FP	B2AR ag	FGF22 binding	Ecoli growth	Structure
1.9	5	7	-1.6	-6	1.2	-36	i	0.71	CCCCNC(=O)CCn1ccc2cc(S(=O)(=O)N3CCCC3)ccc21
2.8	/	/	/	-2	2.2	6	/	0.72	COc1ccc(Nc2ncnc3c2cnn3Cc2ccccc2)cc1OC

# (next part)
SMILES,UCH37 DUB inh,rRNA inh HTS,rRNA inh HTS OD600,rRNA inh HTS RFP,ALR H2O2 inh,HNF4A DNA FP,B2AR ag,FGF22 binding,Ecoli growth
COc1ccc(CCn2c(S)nc3ccccc3c2=O)cc1,-0.3,15,16,2.4,/,3.5,-8,i,0.67
COc1ccccc1NC(=O)CS(=O)(=O)c1cn(CC(=O)N(C(C)C)C(C)C)c2ccccc12,-9.0,1,8,-2.6,/,-0.8,1,i,0.74
CC(C)CCNC(=O)CN(Cc1cccs1)C(=O)CCC(=O)Nc1nccs1,4.0,10,13,-0.2,3,1.6,-1,i,0.72
Cc1cc(C)nc(NC(=O)c2ccc(Cl)c([N+](=O)[O-])c2)n1,3.1,-1,-13,-1.7,-5,6.2,2,i,0.68
O=C(/C=C/c1ccccc1)N1CCN(CC(O)COc2ccccc2)CC1 (stereo not drawn),-0.8,/,/,/,-1,2.0,-7,/,/
O=C(N=C1SC2CS(=O)(=O)CC2N1c1ccc(F)c(Cl)c1)C1CC1 (stereo not drawn),0.8,12,7,-0.5,/,2.5,-1,i,0.7
Cc1cc(C)c(C(=O)Nc2ccc(S(=O)(=O)Nc3ccccn3)cc2)c(C)c1,-4.6,-1,2,-1.1,4,0.8,6,i,0.69
O=C(O)Cn1c(-c2ccccc2)nc2ccccc21,-0.2,/,/,/,/,-0.6,3,/,0.76
O=c1[nH]c(CN2CCN(c3ccc(F)cc3)CC2)nc2ccccc12,-0.2,/,/,/,?,-2.5,-10,/,0.72
Cc1cccc(-c2nnc(SCC#N)n2-c2ccccc2)c1,1.3,/,/,/,/,0.9,3,/,0.72
C/C(N)=C(/C#N)C(=O)COC(=O)C1CSC2(c3ccc(F)cc3)CCC(=O)N12 (stereo not drawn),5.6,-2,-4,0.3,/,-2.5,0,i,0.68
CC(C)(C)S(=O)N1Cc2cc(=O)n(Cc3ccccc3)c(CCO)c2[C@H]1CCO (stereo partly drawn),-5.7,2,1,0.2,/,1.5,-3,i,0.7
CC(C)(C)NC(=O)Nc1nnc(SCC(=O)NC2CCCCC2)s1,5.3,1,3,-2.9,/,-1.1,-4,i,0.7
COC(=O)[C@@H]1[C@@H](C)OC(=O)N[C@H]1c1ccccc1,2.6,1,8,5.1,-8,-0.4,5,i,/
CC(=O)NC(CCS(C)(=O)=O)C(=O)Nc1cccc(Cl)c1Cl (stereo not drawn),-0.2,0,4,-2.0,3,3.3,-6,i,0.71
COc1ccc(NC(=O)C(Cc2ccccc2)n2cccc2)c(OC)c1 (stereo not drawn),3.4,-19,-17,-6.4,/,-1.0,0,i,0.65
CC(C)(C)n1nnnc1CN1C2CCC1CC(NC(=O)Nc1ccccc1)C2 (stereo not drawn),1.6,/,/,/,-15,-4.9,-3,/,0.68
O=C(N/N=C/c1cccc(OC(=O)c2cccc(Br)c2)c1)c1ccncc1,/,-17,-5,-0.3,71,2.6,0,i,/
CON(C)c1nc(OCCNC(=O)COc2ccc(Cl)cc2C)nc(N(C)C)n1,1.8,/,/,/,-3,1.2,-7,/,0.69
OCCC1CN(Cc2cccc(O)c2)CCN1CCc1ccccc1 (stereo not drawn),3.5,9,2,2.8,32,-1.1,-3,i,0.71
Fc1ccc(/C=N/NC(=S)Nc2ccc(Cl)cc2)cc1F,/,/,/,/,-17,-1.0,-37,/,/
c1ccc2c(c1)ccc1nnc(SCc3ccc4c(c3)OCCO4)n12,-4.8,-3,-7,1.9,6,-4.2,-10,i,0.7
Cc1ccc(/C=N/NC(=O)c2nnn(-c3nonc3N)c2C(C)C)s1,/,0,7,1.1,3,2.1,26,i,/
CCOC(=O)NC(Nc1nnc(C)s1)(C(=O)OCC)C(F)(F)F (stereo not drawn),3.1,/,/,/,-6,-1.4,0,/,0.74
Cc1ccc(NCc2ccc(Cl)nc2)c(NCc2ccc(Cl)nc2)c1,4.0,-9,-11,-2.4,-18,-3.0,-13,/,0.7
Cc1noc(C)c1C(=O)Nc1sc2c(c1C(N)=O)CCC2,-124,/,/,/,0,5.3,-20,/,0.68
CC1=C(C)SC(=C(C#N)c2nnc(N3CCOCC3)n2-c2ccccc2)S1,5.9,9,8,-1.9,-2,/,/,i,0.72
CCOc1ncccc1C(=O)OCC(=O)NC1CCCCC1,0.6,5,13,-1.2,13,0.8,-3,i,0.69
CC1CCc2ccccc2N1CC(=O)Nc1cccc(S(=O)(=O)N2CCCC2)c1 (stereo not drawn),2.8,0,-15,1.0,/,6.6,3,i,0.68
Cn1c(=O)n(C)c2cc(NC(=O)c3cc4ccccc4o3)ccc21,5.7,/,/,/,17,-2.1,8,/,0.7
O=C(O)Cn1nnnc1SCC(=O)Nc1ccc(OC(F)(F)F)cc1,-0.5,/,/,/,-4,-2.6,-6,/,0.73
Nn1c(SCC(=O)NCCC2=CCCCC2)nnc1C1CCCCC1,8.3,/,/,/,-2,3.5,-9,/,0.71
C/C(=N\NC(=O)C1CC1(C)c1ccccc1)c1ccco1 (stereo not drawn),/,/,/,/,-6,0.5,-1,/,/
N#Cc1cncc(C#Cc2ccccc2)c1,-4.1,14,6,-1.2,-9,0.6,-7,i,0.65
O=C(O)c1c(NC(=O)c2cccc3ccccc23)sc2c1CCC2,9.0,/,/,/,/,1.8,6,/,0.71
O=C(CS(=O)(=O)c1cn(Cc2ccc(F)cc2)c2ccccc12)N1CCOCC1,1.3,-2,0,-2.3,-2,6.1,8,i,0.72
O=C(N/N=C/c1c[nH]c2ccccc12)C1CC(=O)N(c2ccccc2)C1 (stereo not drawn),/,5,10,6.1,9,-0.6,-8,i,/
CCN(CC)S(=O)(=O)c1cccc(C(=O)Nc2sc3c(c2C(N)=O)CCCC3)c1,-23,/,/,/,-8,-2.3,-7,/,0.74
COC(=O)C1=C(C)OC(N)=C(C#N)C1c1cc2cccc(C)c2nc1Cl (stereo not drawn),-7.7,/,/,/,18,/,/,/,0.68
O=[N+]([O-])c1ccc(Nc2ccccc2)c2nonc12,/,-6,-5,-2.0,30,23,1,i,/
CCOc1ccc(CCNC(=O)c2cccc(C#N)c2)cc1OCC,4.3,0,0,-0.6,-2,2.4,7,i,0.68

# 4 compounds from above with just ALR H2O2 inh, FGF22 binding and B2AR ag:
Compound	ALR H2O2 inh	FGF22 binding	B2AR ag
O=C(O)c1c(NC(=O)c2cccc3ccccc23)sc2c1CCC2	/	/	6
O=C(CS(=O)(=O)c1cn(Cc2ccc(F)cc2)c2ccccc12)N1CCOCC1	-2	i	8
O=C(N/N=C/c1c[nH]c2ccccc12)C1CC(=O)N(c2ccccc2)C1 (stereo not drawn)	9	i	-8
CCN(CC)S(=O)(=O)c1cccc(C(=O)Nc2sc3c(c2C(N)=O)CCCC3)c1	-8	/	-7
